fixLJ activator = increases Burkholderia fixLJ two-component signaling. z-score (no concentration beside the values). B. multivorans fixK-promoter GFP reporter, 18 h; active compounds read high. 29,000 tested, 0.3% active. AID 1918990;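 active = replicate mean overnight rise in green fluorescent reporter signal, 3 or more SD over negative controls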;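 note: score is relative to vehicle wells of the plate; 300 nL library stock went into each well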
* marks the source's active call; other numbers are inactive results.

SMILES | fixLJ activator
Cc1ccc2c(CC(=O)Nc3ccc(S(=O)(=O)N4CCCCC4C)cc3)coc2c1C (stereo unspecified) | -0.56
CC(C)CC(=O)n1nc(-c2cccnc2)nc1NCc1ccc(F)cc1 | -0.99
CCn1cc(C(=O)NCc2ccc(C)cc2)c(=O)c2cc(S(=O)(=O)N3CCC(C)CC3)ccc21 | 0.65
CCC(Cc1ccccc1)NC(=O)c1csc2c1CCCCC2 (stereo unspecified) | 0.67
Cc1cccc(C)c1OCC(=O)N(Cc1ccco1)Cc1ccco1 | -0.65
CC(C)c1nc(CNC(=O)c2ccc(NCCc3cnc[nH]3)nc2)no1 | -0.34
CCOc1ccc(Nc2nc3cc(Cl)c(Cl)cc3nc2-n2nc(C)cc2C)cc1 | -1.44
Cc1ccc(NC(=O)/C(C#N)=C/c2ccc(C(C)C)cc2)cc1C | 0.53
CCOc1ccc(OCC)c(NS(=O)(=O)c2ccc3c(c2)CCN3C(=O)C2CCC2)c1 | -0.9
COc1ccccc1-c1cccc(C(=O)NC2CC(c3cc(=O)[nH]cn3)C2)c1 (stereo unspecified) | -1.14
COc1cc(OC)c(NC(=O)c2cc3c(s2)-c2ccc(Cl)cc2SC3)cc1Cl | -2.1
Cn1c(/C(C#N)=C/c2ccccc2Br)nc2ccccc21 | -0.46
CCn1c(CC2CCNCC2)nn(Cc2cc(F)c(F)c(F)c2)c1=O | 0.91
Cc1cc(C(F)(F)F)nc(N2CCN(C(=O)c3cc(-c4cccn4C)n[nH]3)CC2)n1 | 0.12
COc1ccc(CNC(=O)CN(c2cc(C(F)(F)F)ccc2Cl)S(C)(=O)=O)cc1 | -1
Cn1c(CCCNC(=O)Cn2ccnc2-c2ccccc2)nc2ccccc21 | -0.77
Cc1cccc(C(C(=O)NCCn2nc(C(F)(F)F)cc2C)N(C)C)c1 (stereo unspecified) | -0.08
CCc1ccc(-c2nc(CN3CCCC(C(=O)NCc4ccccc4Cl)C3)c(C)o2)cc1 (stereo unspecified) | -2.1
Cc1cccc(NC(=O)CN2C(=O)C(c3ccccc3)=NC23CCC(C)CC3)c1 (stereo unspecified) | 0.26
CC(=O)c1cccc(NC(=O)Nc2cc3c(cc2N2CCCC2)n(C)c(=O)n3C)c1 | 1.26
CC(NC(=O)N1CC2CCCN2C(=O)C1C)c1ccc(F)cc1 (stereo unspecified) | -1.22
Cc1noc(-c2ccc(S(=O)(=O)N3CC4CCC(C3)N(C)C4=O)o2)c1C (stereo unspecified) | -2.44
O=C(CCCCn1c(=O)c2ccccc2n(Cc2ccccc2F)c1=O)NCc1ccc2c(c1)OCO2 | 0.95
CCN(Cc1nc(-c2ccc(C)cc2)no1)S(=O)(=O)c1c(C)noc1C | 0.74
Cc1cc(C)n(-c2nc3ccccc3nc2Nc2ccc(C(C)C)cc2)n1 | -0.69

Brought forward from above: 2 entries, followed by the next part.
SMILES | fixLJ activator
CCN(Cc1nc(-c2ccc(C)cc2)no1)S(=O)(=O)c1c(C)noc1C | 0.74
Cc1cc(C)n(-c2nc3ccccc3nc2Nc2ccc(C(C)C)cc2)n1 | -0.69
Cc1n[nH]c(C)c1CC(=O)N1CCC(C(=O)O)(c2ccccc2)C1 (stereo unspecified) | -1.2
O=C(C1CC1)N1CCc2cc(Br)cc(S(=O)(=O)N3CCN(c4ccccc4)CC3)c21 | 0.11
Cc1ccc(-c2nc3ccccn3c2Nc2ccccc2C)s1 | 0.35
CCCC(=O)N1CCC(NC2COCC2Cc2ccncc2)CC1 (stereo unspecified) | -0.59
Cc1nnc(SCC(=O)NCCC2CCCCN2S(C)(=O)=O)o1 (stereo unspecified) | 0.09
O=c1[nH]cnc2[nH]ncc12 | -0.62
Cn1c(=O)c2c(nc(SCC(=O)Nc3ccccc3F)n2Cc2ccc(Cl)cc2)n(C)c1=O | -3.18
Cc1cc(C)n2c(Nc3ccccc3C)c(-c3cccs3)nc2n1 | -0.19
Cn1c(-c2ccccc2)cnc1NCc1ccccc1O | -2.73
CCCN(CCC)CCCNC(=O)c1cn(CC)c2ccc(S(=O)(=O)N(C)C3CCCCC3)cc2c1=O | -1.82
COc1cc(-c2nc(-c3cccc(Cl)c3)c(-c3ccccc3)[nH]2)cc(OC)c1OC | -1.01
Clc1ccc2nc(-c3ccc(N4CCOCC4)cc3)c(Nc3ccccc3)n2c1 | -1.92
COc1cccc(NC(=O)CCNC(=O)Cn2ccc3ccccc3c2=O)c1 | 0.47
COc1ccc(CCNC(=O)c2cn(C)c3ccc(S(=O)(=O)N(C)C)cc3c2=O)cc1OC | -1.44
CCCc1nc(CNc2nccc(N3CCCC(O)C3)n2)cs1 (stereo unspecified) | -1.54
Cc1ccc(Cl)cc1N1CCN(C(=O)c2cn(C)c3ccc(S(=O)(=O)N(C)C4CCCCC4)cc3c2=O)CC1 | -2.38
CCC1=Nc2cc(C(=O)NC(C)c3ccccc3)ccc2Sc2ccc(Cl)cc21 (stereo unspecified) | -1.1
COc1ccc2[nH]cc(CCNC(=O)Nc3cccc(F)c3)c2c1 | -2.33
Cc1nc2nc(NC(=O)CC(C)C)[nH]n2c(=O)c1Cc1ccccc1 | 0.84
Cc1ccc(C(C)C)c(OCC(=O)Nc2cccc(NC(=O)c3ccco3)c2)c1 | -0.45
CCc1cccc(CC)c1NC(=O)c1c(C)oc2ccc(O)c(CN3CCCC3)c12 | 1.15
CCOc1ccc(-n2nc3ccc(NC(=O)c4ccc(C)cc4C)cc3n2)cc1 | -0.86
CC(CCc1ccccc1)NCC(O)c1ccc(O)c(C(N)=O)c1 (stereo unspecified) | -0.97
CC(C)Oc1ccc(CNC(=O)C2CCN(c3nc4ccccc4n(C)c3=O)CC2)cc1 | -0.89
O=C(O)Cn1ccc(C2CCCN(C(=O)c3ccc(O)c(Cl)c3)C2)n1 (stereo unspecified) | -3.25

Exported with each value named: part of the list above.
CCn1c(CC2CCNCC2)nn(Cc2cc(F)c(F)c(F)c2)c1=O
  fixLJ activator: 0.91

Cc1cc(C(F)(F)F)nc(N2CCN(C(=O)c3cc(-c4cccn4C)n[nH]3)CC2)n1
  fixLJ activator: 0.12

COc1ccc(CNC(=O)CN(c2cc(C(F)(F)F)ccc2Cl)S(C)(=O)=O)cc1
  fixLJ activator: -1

Cn1c(CCCNC(=O)Cn2ccnc2-c2ccccc2)nc2ccccc21
  fixLJ activator: -0.77

Reprinted at random: three entries already listed, in no set order.
SMILES | fixLJ activator
Cc1ccc(Cl)cc1N1CCN(C(=O)c2cn(C)c3ccc(S(=O)(=O)N(C)C4CCCCC4)cc3c2=O)CC1 | -2.38
O=c1[nH]cnc2[nH]ncc12 | -0.62
CCOc1ccc(Nc2nc3cc(Cl)c(Cl)cc3nc2-n2nc(C)cc2C)cc1 | -1.44

Structures shown so far that have bromine:
SMILES | fixLJ activator
Cn1c(/C(C#N)=C/c2ccccc2Br)nc2ccccc21 | -0.46
O=C(C1CC1)N1CCc2cc(Br)cc(S(=O)(=O)N3CCN(c4ccccc4)CC3)c21 | 0.11

Other entries.
SMILES | fixLJ activator
COc1ccc(CN(C)S(=O)(=O)NCc2ccccc2)c2cccnc12 | 0.31
CCC(=O)NCc1cccc(-c2ccc(C(=O)N3CCN(C)CC3)cc2)c1 | 0.3
COc1ccc(-c2nn(C)c3sc(C(=O)N4CCN(c5cc(Cl)ccc5C)CC4)cc23)cc1OC | -0.74
COc1ccc(-c2ccc3c(N)c(C(=O)Nc4ccc(C)cc4C)sc3n2)cc1OC | 0.8
Cc1ccc2oc3c(c(=O)c2c1)C(c1ccc(OCC(N)=O)cc1)N(Cc1ccc2c(c1)OCO2)C3=O (stereo unspecified) | -0.13
CC(=O)N1CCc2c(sc3c2c(=O)n(-c2cccc(Cl)c2C)c(=O)n3Cc2ccccc2C)C1 | -0.52
CCOc1ccc(-c2nonc2NC(=O)c2oc3cc(C)ccc3c2C)cc1OCC | 0.97
CCCc1nnc(NC(=O)c2cc(=O)c3cc(Cl)ccc3o2)s1 | -0.86
CC(NCc1ccc(OCC(=O)N2CCOCC2)cc1)C1=CCCCC1 (stereo unspecified) | -0.1
Cc1sc2ncn(CC(=O)N3CCN(c4ccccc4F)CC3)c(=O)c2c1S(=O)(=O)N1CCN(c2ncccn2)CC1 | -0.95
CC1CCN(S(=O)(=O)c2ccc3c(c2)N(CC(=O)N2CCN(c4ccccc4)CC2)C(=O)CO3)CC1 | 0.29
Cc1ccc(C)c(C(=O)N2CCC[C@]3(C2)CN(c2ncccn2)CCC3O)c1 (stereo partly specified) | -0.53
COc1ccc(C(=O)N(Cc2ccco2)Cc2ccccc2F)cc1Cl | 0.92
Cc1c(Cl)cccc1NS(=O)(=O)c1ccc(NS(=O)(=O)c2ccc3c(c2)OCCO3)cc1 | 0.41
CC1=C(C(=O)Nc2ccccc2)C(c2cccnc2)n2nc(SCc3ccccc3F)nc2N1 (stereo unspecified) | 0.58
Cn1ccnc1SCC(=O)Nc1cccc(Br)c1 | -0.62
CCN(C(=O)Cn1ncc2c1-c1cc(C)ccc1OC2)c1cc(Cl)ccc1OC | -0.94
CCCn1ncnc1-c1cccc(C(=O)N2CCc3[nH]nc(CC)c3C2)c1 | 1.96
CCn1c(CO)nnc1C1CC(NC(=O)c2nc(-c3ccccc3)[nH]c2C)C1 (stereo unspecified) | -0.85
CCc1ccc(C(=O)CC2(O)C(=O)N(Cc3ccc(C)cc3)c3ccccc32)cc1 (stereo unspecified) | -0.16
Cc1nn(C(C)(C)C)c(OC(=O)c2c(F)cccc2F)c1Sc1ccccc1 | 0.36
CCn1cc(CNC(=O)c2cc(-c3ccc(C)c(C)c3)nc3ccccc23)c(C)n1 | -0.39
CCn1c(C(=O)NCc2ccc(OC(C)C)cc2)cc2oc3ccccc3c21 | -0.66
COc1cccc(-c2noc(CCCC(=O)NCc3ccco3)n2)c1 | 1.2

Bioassay records: PubChem, ICCB-Longwood Screening Facility, Harvard Medical School

A portion of the library (hit frequency here may not be typical).
